High-throughput results deposited in PubChem BioAssay by National Center for Advancing Translational Sciences (NCATS).
PINK1 modulator: changes PINK1 expression. PINK1 immunofluorescence, high-content cytometry, 24 h. Potency, µM (highest dose often 76.6 µM), inactives show at the highest dose activation (PINK1 increase), actives largely listed as activators. 410,000 compounds, 0.2% hits; active = well fitted activation curve with a large enough effect; inconclusive = small, poorly fitted or top-dose-only effect; inactive = flat fitted curve, though single readings scatter; cell line not stated here;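 further: potency means the concentration at half of the fitted maximal effect; % of control where 0% means no effect; nearly all actives have a fitted effect of over 65% in size; a mitochondrial uncoupler was the plate control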
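Fluorescence from anti-PINK1 antibody, together with nuclear and cell stains, was scanned on a laser-scanning cytometer. Before staining, stable-line cells were incubated 24 hours with compounds at 5 concentrations; primary antibody 12 h at 10 degrees C.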
TRPML1 ag: agonists of human TRPML1 channel; TRPML1-expressing cells, Ca2+ dye fluorescence, FDSS; host cell line not named in the record; reference of the full effect not given here; Q9GZU1; AID 624414; 410,000 compounds, 0.12% hits; activation, % (concentration not given with the values); in the data active = activation above about 50%; inconclusive = about 30% to 50%; inactive = below about 30%; further: 0% is about no effect; the text of the record puts the active cut at 80%
Target sequence (Q9GZU1 whole entry, looked up): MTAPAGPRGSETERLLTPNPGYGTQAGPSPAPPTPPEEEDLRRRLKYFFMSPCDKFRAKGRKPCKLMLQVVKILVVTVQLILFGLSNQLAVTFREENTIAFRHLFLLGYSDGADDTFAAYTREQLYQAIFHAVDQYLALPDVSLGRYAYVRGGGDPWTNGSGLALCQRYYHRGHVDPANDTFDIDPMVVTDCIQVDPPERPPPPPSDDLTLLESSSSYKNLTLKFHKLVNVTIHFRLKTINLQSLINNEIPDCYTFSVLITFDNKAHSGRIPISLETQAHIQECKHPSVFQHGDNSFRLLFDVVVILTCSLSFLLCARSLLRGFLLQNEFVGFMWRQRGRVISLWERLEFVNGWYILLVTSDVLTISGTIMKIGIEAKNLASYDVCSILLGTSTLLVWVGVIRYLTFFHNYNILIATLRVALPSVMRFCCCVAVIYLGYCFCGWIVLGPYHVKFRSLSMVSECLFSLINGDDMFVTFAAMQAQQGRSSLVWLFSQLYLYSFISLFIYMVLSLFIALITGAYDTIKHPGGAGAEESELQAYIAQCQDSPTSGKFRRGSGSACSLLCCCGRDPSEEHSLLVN
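In this qHTS format, compounds were pin-transferred onto Ca8-dye-loaded TRPML1-DL cells induced with Tet overnight, and intracellular Ca2+ fluorescence was recorded kinetically for 110 s after a 10 s baseline. A subsequent 4uM final 54-4 (EC80) addition followed by a second 110 s read served as the antagonist phase.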
TRPML1 inh: blocks the human TRPML1 channel. Q9GZU1. TRPML1-inducible cells, Ca2+ dye fluorescence, FDSS; hits give low values; inhibition of EC80 agonist-evoked calcium signal. activity change, negative = inhibition, % (test concentration not listed). 390,000 compounds, 0.02% hits. AID 624415; in the data active means activity change below about -50%; inconclusive means about -30% to -50%; inactive means above about -30%;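 further: stimulus is agonist 54-4 at its EC80 concentration; on the % scale 0 is the no-effect control and ±100 the full control effect; compound concentration not given in the record; the text of the record puts the active cut at -80%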
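Calcium fluorescence in TRPML1-DL cells induced overnight with Tet: a 110 s read after compound pin addition, then a 110 s antagonist read after challenge with 54-4 at 4 uM final (EC80).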
CtBP-E1A blk: inhibitors of CtBP/E1A interaction; AlphaScreen GST-E1A/His-CtBP binding, 1536-well; hits give low values; control for the full effect not named in the record; 340,000 compounds, 0.49% hits; activity change, % (no concentration beside the values); AID 651724; in the data active means activity change below about -65%; inconclusive means about -30% to -65%; inactive means above about -30%; further: on the % scale 0 is the no-effect control and ±100 the full control effect
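Homogeneous bead-based format: GST-tagged E1A captured on glutathione donor beads, His-tagged CtBP on nickel acceptor beads; compounds precede bead addition by 2 h at 37 °C.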
Six1-Eya2 inh: blocks human Six1 binding to Eya2 | AlphaScreen GST-Six1/His-Eya2 binding, biochemical; hits give low values; control for the full effect not named in the record | activity change, % (no concentration beside the values) | 360,000 compounds, 0.56% hits; in the data active = activity change below about -65%; inconclusive = about -30% to -65%; inactive = above about -30%; further: on the % scale 0 is the no-effect control and ±100 the full control effect
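Homogeneous AlphaScreen proximity assay pairing GST-Six1 with His-tagged Eya2 (added as 5X mix: 250 nM and 500 nM) in 50 mM Tris pH 8.0, 300 mM NaCl, 1 mM TCEP. Glutathione donor and nickel acceptor beads; 1 h, 37 °C, dark.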
D2 ag: activates the human D2 dopamine receptor | P14416 | DiscoveRx PathHunter D2 beta-arrestin, luminescence, 90 min; 100% = 57 uM dopamine signal | activation, % (no concentration beside the values) | 360,000 compounds, 0.084% hits; in the data active = activation above about 40%; inconclusive = about 15% to 40%; inactive = below about 15%; further: compound concentration not given in the record; the text of the record calls up to 30% inactive
Target sequence (P14416 whole entry, looked up): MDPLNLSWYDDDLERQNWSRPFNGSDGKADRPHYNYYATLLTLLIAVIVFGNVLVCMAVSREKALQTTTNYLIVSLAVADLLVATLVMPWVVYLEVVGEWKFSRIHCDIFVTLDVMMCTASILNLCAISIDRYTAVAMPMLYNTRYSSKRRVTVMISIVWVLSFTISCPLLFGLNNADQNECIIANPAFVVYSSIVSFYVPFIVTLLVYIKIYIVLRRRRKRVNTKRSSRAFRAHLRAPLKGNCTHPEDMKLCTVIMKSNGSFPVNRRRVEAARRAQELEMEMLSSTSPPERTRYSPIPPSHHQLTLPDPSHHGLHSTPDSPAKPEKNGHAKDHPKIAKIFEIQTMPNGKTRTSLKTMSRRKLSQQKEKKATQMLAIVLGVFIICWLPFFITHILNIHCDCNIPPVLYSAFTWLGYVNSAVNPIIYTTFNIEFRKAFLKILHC
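DiscoveRx PathHunter D2 beta-arrestin cells (2,100/well) attached overnight, then compound-stimulated 90 min at 37 C in HBSS/10 mM HEPES/0.1% Tween-20 buffer; beta-galactosidase complementation read by luminescence after 1 h at ambient temperature. Dopamine 57 uM final (EC100) as control.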
Numbers without * were called inactive; u = inconclusive; x = not tested or not shown; [ ] = dose if it differs, or a comment.

SMILES | PINK1 modulator | TRPML1 ag | TRPML1 inh | CtBP-E1A blk | Six1-Eya2 inh | D2 ag
CC1CCN(C(=O)C(=O)Nc2sc3c(c2C(=O)O)CC(C)(C)OC3)CC1 | 0.6% | 0.0 | 1.8 | -4.3 | 0.8 | -3.0
Cc1ccccc1S(=O)(=O)Cc1ccc(C(=O)NCCCN2CCCC2)o1 | 0.0% | 0.3 | 40.2 | 1.5 | 1.9 | 3.2
COCC(=O)Nc1c(C(=O)Nc2ccc3c(c2)OCO3)oc2ccccc12 | -0.2% | 0.8 | -12.2 | 0.0 | 0.0 | 2.3
Cc1cccc(NCCC(=O)c2ccc([N+](=O)[O-])cc2)c1C | -1.2% | -0.5 | 65.6 | -21.1 | u | -3.4
O=C(NCc1ccccc1)c1c(F)c(F)c(F)c(F)c1F | 1.1% | 0.6 | 6.0 | 4.9 | 2.4 | -2.2
O=C(Nc1nccs1)c1csc2c1CCCC2 | 0.3% | 1.6 | 12.0 | -3.0 | -4.1 | -1.7
O=C(Cc1ccc([N+](=O)[O-])cc1)N/N=C/c1ccccc1F | 3.4% | 0.6 | 14.3 | 12.4 | -0.8 | 3.3
CNS(=O)(=O)c1ccc(C(=O)NCC(=O)NCCC(c2ccccc2)c2ccccc2)cc1 | -0.3% | 0.1 | -0.9 | 6.5 | -0.3 | 0.2
COC(=O)C1=C(C)Nc2c(c(=O)n(C)c(=O)n2C)C1c1ccncc1 (stereo unspecified) | -0.5% | 0.6 | 20.9 | -10.0 | 3.6 | -2.7
COc1ccc(OCC(=O)N/N=C/c2ccncc2)cc1 | -1.9% | 0.0 | -17.1 | -1.0 | 6.6 | 0.0
Cc1noc(C)c1NC(=O)N(C)C[C@H]1Oc2ccc(NS(=O)(=O)c3cn(C)cn3)cc2C(=O)N([C@H](C)CO)C[C@@H]1C | 0.1% | -0.6 | 8.4 | 0.5 | 1.1 | -1.3
Fc1cccc(F)c1/C=N/NC(=S)Nc1cccnc1 | 0.4% | -0.4 | -4.1 | -3.7 | -1.9 | -0.9
CNCC(=O)Nc1ccc(Cl)c(C(F)(F)F)c1 | 1.3% | 0.5 | -8.9 | -8.4 | 4.3 | -4.1
O=C(NCc1ccc(F)cc1)C(c1ccncc1)N(C(=O)c1csnn1)C1CC1 (stereo unspecified) | 0.2% | 0.7 | -0.7 | -8.6 | 0.0 | -3.2
Cc1cc(C)c(NC(=O)C2CCCO2)c(C)c1NC(=O)C1CCCO1 (stereo unspecified) | -0.3% | 0.9 | 2.4 | 0.5 | 3.7 | -2.9
Cc1c(NC(=O)C2CCCN2C(=O)c2cccs2)c(=O)n(-c2ccccc2)n1C (stereo unspecified) | -1.3% | 0.4 | -7.1 | 8.8 | 1.1 | 0.1
Cc1cc(Cl)ccc1NC(=S)N1CCC(C(N)=O)(N2CCCCC2)CC1 | 1.7% | -0.6 | -22.1 | -1.6 | 1.5 | -3.0
Cn1c(SCC(=O)c2c(N)n(C)c(=O)n(C)c2=O)nnc1-c1ccc(F)cc1 | -0.4% | 0.3 | 41.0 | 10.3 | 6.0 | -2.7
Cc1ccc(N=Cc2nc(-c3ccco3)oc2O)cc1 | 0.1%[38.3 µM] | 0.9 | -6.3 | -1.3 | -4.2 | 1.2
O=C(NCc1ccc(F)cc1)C1CCCN(S(=O)(=O)c2ccc(-n3cnnn3)cc2)C1 (stereo unspecified) | 12.8% | 0.0 | -6.2 | 4.0 | -1.3 | -3.0
COc1ccc(CNC(=O)Nc2ccc3c(c2)c(=O)n(C)n3Cc2cc(C)cc(C)c2)cc1 | 4.0% | -0.2 | x | -8.0 | -17.3 | 13.2
COc1ccc(C(CC(=O)Nc2ccc(Cl)cc2F)NC(=O)C(F)(F)F)cc1 (stereo unspecified) | 12.0%[38.3 µM] | -0.8 | 29.3 | 2.9 | 1.7 | -4.2
O=S(=O)(Nc1nc2ccc(S(=O)(=O)N3CCCC3)cc2s1)c1ccc(F)cc1 | -3.5%[38.3 µM] | -0.4 | -0.9 | -1.1 | -3.3 | -0.8
COc1ccc(Br)cc1/C=N/NC(=O)C[n+]1ccccc1 | 2.8% | -1.0 | -2.9 | x | 2.5 | -5.8
Cc1ccc(S(=O)(=O)NCc2cn3ccccc3n2)c(C)c1 | 2.5% | -0.6 | -4.3 | x | 2.1 | 0.7

One compound at a time, from the list above. Screens in order: PINK1 modulator | TRPML1 ag | TRPML1 inh | CtBP-E1A blk | Six1-Eya2 inh | D2 ag
`COc1ccc(OCC(=O)N/N=C/c2ccncc2)cc1` in the list: -1.9% | 0.0 | -17.1 | -1.0 | 6.6 | 0.0
`Cc1ccccc1S(=O)(=O)Cc1ccc(C(=O)NCCCN2CCCC2)o1` in the list: 0.0% | 0.3 | 40.2 | 1.5 | 1.9 | 3.2
`Cc1noc(C)c1NC(=O)N(C)C[C@H]1Oc2ccc(NS(=O)(=O)c3cn(C)cn3)cc2C(=O)N([C@H](C)CO)C[C@@H]1C` in the list: 0.1% | -0.6 | 8.4 | 0.5 | 1.1 | -1.3

The list goes on:
SMILES | PINK1 modulator | TRPML1 ag | TRPML1 inh | CtBP-E1A blk | Six1-Eya2 inh | D2 ag
COc1ccc(CN(C)Cc2c(O)ccc3cc(Br)ccc23)cc1OC | 5.1% | 3.2 | -15.1 | -10.2 | 0.4 | 1.3
CCOCCCNc1nc2ccccc2[nH]1 | 3.3% | -0.1 | -13.7 | -3.6 | 3.7 | -0.2
CC(=O)Nc1ccc(C2NC(=O)CCC2[N+](=O)[O-])cc1 (stereo unspecified) | -0.9% | -0.7 | 1.3 | 5.0 | 5.3 | 0.0
CC(=O)c1sc2nsc(SCCN3CCOCC3)c2c1N | -1.2% | 0.7 | -11.5 | -1.2 | -0.5 | -3.2
Clc1ccc(CSc2ccc(-c3cccnc3)nn2)cc1 | 2.0% | -1.1 | 10.5 | -1.5 | 0.4 | 1.1
CCCN1CCN(S(=O)(=O)c2cc3c(cc2C)NC(=O)CO3)CC1 | 0.0% | -0.5 | -14.7 | 1.6 | 4.6 | 0.6
Cc1ccc(C(=O)NC2CC(C)(C)NC(C)(C)C2)c(C)c1 | 0.6% | -0.2 | 45.0 | -1.6 | -1.4 | -3.8
CC1(C)CC(=O)C2=C(C1)NC1=C(C(=O)c3ccccc31)C2c1cc([N+](=O)[O-])ccc1O (stereo unspecified) | 4.8% | 2.3 | 14.4 | u | u | -11.1
O=C(CSc1ccccc1)Nc1cccc(S(=O)(=O)N2CCCC2)c1 | 0.0% | -0.3 | -3.5 | 1.4 | -0.3 | -2.7
O=C(NCCN1C(=O)S/C(=C\c2ccccc2F)C1=O)C1CCN(S(=O)(=O)c2cccs2)CC1 | -2.8% | 0.0 | -1.8 | -2.5 | -4.7 | 0.6
COC(=O)c1cc(C)nc2c1c(=O)nc(SCc1cccc(C(F)(F)F)c1)n2C1CC1 | -0.3% | 1.7 | -10.1 | x | x | x
O=C(Nc1cc(-c2nc3cc(Cl)ccc3o2)ccc1Cl)c1cc2ccccc2o1 | 1.0% | 1.0 | 1.8 | x | x | x
CCCCn1c(CNC(=O)c2ccc(OC)cc2)nnc1SCC(=O)Nc1ccccc1 | 2.1% | 0.4 | -4.6 | x | x | x
O=C(/C(=N\O)n1cncn1)c1ccc(Cl)cc1Cl | 2.5% | -0.2 | -13.6 | 6.7 | 1.8 | -1.0
CCN(CC)CCCN(Cc1cc2cc3c(cc2[nH]c1=O)OCO3)C(=O)Nc1ccccc1OC | 0.3% | 2.5 | -11.1 | -0.2 | -26.2 | -3.6
COc1ccc(CCC(=O)NCc2cccc(C(F)(F)F)c2)cc1 | -0.7% | 0.9 | 22.9 | 5.9 | 0.0 | 2.6
Cn1cc(S(=O)(=O)N2CCOCC2)cc1C(=O)Nc1ccc(Cl)c(C(F)(F)F)c1 | 4.3% | -0.4 | 14.7 | x | x | x
COc1ccc(OC)c(/C=C/C(=O)OCC(=O)N2CCCC2)c1 | -0.2% | -0.6 | -1.0 | x | -10.2 | -2.1
Cc1ccc(C)c(C(=O)COC(=O)c2ccccc2N2C(=O)C3C4CCC(C4)C3C2=O)c1 (stereo unspecified) | -2.4% | -0.4 | 3.7 | 1.4 | -1.0 | 0.5
COc1ccc(CCn2c(-c3cc([N+](=O)[O-])cc([N+](=O)[O-])c3)nc3nc4ccccc4nc32)cc1 | 1.3% | 0.0 | -7.0 | -5.3 | 0.9 | 5.2
O=C(CCCn1c(=O)oc2ccccc21)N1CCc2ccccc2C1 | -1.4% | 0.1 | 11.4 | -0.6 | 3.2 | -4.7
CCOc1ccccc1NC(=S)N1CCC(NC(=O)C(C)(C)C)CC1 | -0.4% | 0.2 | -14.0 | -1.6 | 4.6 | -0.6
Clc1ccc(-c2cc(CN3CCCCC3)no2)cc1Cl | 15.5% | 0.4 | -1.2 | 0.3 | 1.5 | -3.6
Nc1ncc(Br)cc1S(=O)(=O)NCCC(=O)NCc1ccc(F)cc1 | -0.6% | -0.8 | -1.0 | 3.4 | 1.1 | 0.6
COc1cccc(-c2coc3c(C)c4oc(=O)c(CCC(=O)O)c(C)c4cc23)c1 | -1.7% | 0.1 | 23.3 | -87.6* | u | -1.1
SMILES | PINK1 modulator | TRPML1 ag | TRPML1 inh | CtBP-E1A blk | Six1-Eya2 inh | D2 ag
COc1ccc(CN(CC(=O)NCCC(C)C)C(=O)CCC(=O)Nc2nccs2)cc1 | 0.9% | 0.7 | -12.8 | -10.6 | u | 4.4
Cc1ccc(NC(=O)COC(=O)c2cc(=O)c3ccccc3o2)cc1F | -0.2% | 0.1 | -7.1 | -17.1 | 2.0 | -1.1
O=C(C[n+]1ccn(-c2ccccc2)c1)c1ccc([N+](=O)[O-])cc1 | 4.8% | 0.1 | -5.8 | -0.9 | 8.3 | -1.6
Cc1cccc(C(=O)NCN2CCN(c3ccccc3C#N)CC2)c1 | 0.7% | -0.7 | -6.5 | 6.0 | -2.9 | -0.8
CCc1ccc(CN(C(=O)c2ccc(OC)cc2)C2CCS(=O)(=O)C2)cc1 (stereo unspecified) | 0.9% | -0.5 | 8.9 | x | x | x
CN(C)S(=O)(=O)n1cc(/C=C(\NC(=O)c2ccccc2)C(=O)N2CCCCC2)c2ccccc21 | 3.2% | -0.3 | -0.7 | 6.9 | -1.4 | -1.4
Cc1ccc(NC(=O)CSc2ncc(-c3ccccc3)[nH]2)cc1 | 1.0% | 1.9 | -11.8 | x | x | x
CCOc1ccc2nc(-c3ccccc3)nc(SCC(=O)Nc3ncc(C)s3)c2c1 | 6.2% | -0.5 | 5.4 | 2.0 | -1.8 | -1.6
COc1ccc(OC)c(S(=O)(=O)N2CCC(C(=O)NC3CCCC3)CC2)c1 | 1.2% | -0.5 | 13.8 | 2.9 | 5.8 | 6.7
Cn1cc(C(=O)C(=O)N2CCc3ccccc32)c2ccccc21 | 4.0% | -0.1 | -4.4 | -12.6 | -15.0 | -1.8
COc1ccc(CN(C(=O)Cc2coc3ccc(C)cc23)C2CCS(=O)(=O)C2)cc1 (stereo unspecified) | -0.3% | 0.5 | 12.2 | x | x | x
Cc1ccc(Cn2c(C)c3cnn(CC(=O)NC4CCCC4)c(=O)c3c2C)cc1 | 2.2% | -0.5 | -0.3 | 0.2 | -2.6 | -3.4
